# Mtb hypoxia rep = Mtb hypoxia fluorescent reporter inhibition | M. tuberculosis hypoxia-regulated fluorescent reporter, fluorescence | fluorescence inhibition, % (concentration not given with the values) | hit rate 0.1% among 300,000 | AID 1159583;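 active means 35 to 45% if threefold the growth effect, above 45% if 1.5-fold the growth effect; inactive means the rest, general growth blockers included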;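 further: wells of about 50 µL received 100 nL stock; 0% = vehicle wells and 100% = reference inhibitor wells; whole bacteria with a GFP reporter of the hypoxia response; strong numbers were not always called active; many hits fall short of the cut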
# Sa RN4220 lethal = S. aureus RN4220 growth inhibition. inhibition, % (no concentration beside the values). OD600, 16 h. AID 1259311. hit rate 0.33% among 330,000;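 active means z-score of -3 or lower and OD600 up to 0.18 on both plates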;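 further: plate controls were untreated cells for no effect and reference antibiotic for full effect; stock transfer was 100 nL into about 80 µL; one replicate is shown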
# Autofluor counter = counter-screen for toxin protease inhibitors: compound fluorescence. compound autofluorescence counterscreen, microsphere flow cytometry; hits give high values. fluorescence intensity (concentration not given with the values). hit rate 3.1% among 360,000;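 active means at least 3 SD above the mean of all compounds, about 16000 in these data; inconclusive means too few beads counted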;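 further: 100 nL of 1 mM stock went into each well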
# PrP UTR inh = suppresses PrP 5' UTR mRNA reporter expression. AID 488862. inhibition, % (test concentration not listed). hit rate 0.35% among 340,000. cell-based PrP 5' UTR mRNA reporter, plate reader;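 active means every replicate at 50% or more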;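 further: 0 = median of the neutral control wells; tested in H4 reporter cells; numbers are from one replicate; inactives centre near -14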
# BJeLR viability = kills HRASV12-expressing BJeLR cells; inhibition, % (test concentration not listed); hit rate 0.17% among 300,000; BJeLR (HRASV12) viability, CellTiter-Glo ATP luminescence, 48 h; reference of the scale not given here;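 active means replicate mean above 50%; inconclusive means above 50% but judged a plate artefact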;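 further: 50 nL library stock added to about 25 µL; numbers are from one replicate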
# Sa ugtP lethal = kills S. aureus RN4220 lacking UgtP | S. aureus RN4220 ugtP deletion, OD600 growth, 16 h; some inactives read as strong as hits | growth inhibition, % (no concentration beside the values) | hit rate 0.54% among 330,000;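 active means z-score under -3 and OD600 up to 0.15 on both plates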;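 further: plate controls were untreated wells for no effect and antibiotic for full effect; wells of about 80 µL received 100 nL stock; the first replicate is given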
# Mtb hypoxia rep growth = recorded beside Mtb hypoxia rep, whose call it bears; growth inhibition, %; measured here: M. tuberculosis growth (absorbance);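 0% = vehicle and 100% = reference antibiotic; read after six days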
# * = called active by the depositor; ? = inconclusive; · = not tested or not shown; & = joins results of further samples. Rows are unselected; any-hit rate near 4.1%.
SMILES,Mtb hypoxia rep,Mtb hypoxia rep growth,Sa RN4220 lethal,Autofluor counter,PrP UTR inh,BJeLR viability,Sa ugtP lethal
Cc1ccc(NS(=O)(=O)N2CCOCC2)cc1Cl,5,8,2.8,4295,-12,-6,2
CC(C)(C)C(=O)NC1CC2CCCC(C1)N2C(=O)Nc1cccc(Cl)c1 (configuration not stated),14,6,1.2,3720,-16,-7,9
CC(C)COC(=O)NCC12C=CC(O1)C1C(=O)N(c3ccc(Cl)cc3)C(=O)C12 (configuration not stated),·,·,-2.2,2519,-14,2,0
O=C(OCC(=O)N1CCOCC1)c1cc(-c2ccccc2)nc2ccccc12,7,6,3.3,3647,6,·,5
CCCN(CC(=O)Nc1ccccc1OC)C(=O)CC1CCCC1,5,-4,12,?,-11,·,-1
CCOC(=O)Nc1ccc2c(c1)N(C(=O)N(C)C)c1ccccc1CC2,·,·,-3.3,2649,-2,6,2
CCCNC(=O)OCc1cccnc1Sc1ccc(C)cc1,18,9,6.2,3844,-8,-7,4
COc1ccc(C(=O)CN(C(=O)c2ccc(Cl)cc2)N2C(=O)c3ccccc3C2=O)cc1,8,0,3.3,17481*,-15,6,10
CSc1nsc(SC)c1NC(=O)OCC1CCCO1 (configuration not stated),3,12,-2.2,21471*,-16,-8,2
O=c1c2cc(Cl)ccc2nc(-c2ccc(Cl)c(Cl)c2)n1O,·,·,·,4745,0,-2,·
COc1nc(OCCNS(=O)(=O)c2ccc(C)cc2)nc(N(C)C)n1,0,9,3.8,3636,-12,-13,4
CCCOc1ccc([N+](=O)[O-])cc1C1NC(=S)NC(c2ccccc2)=C1C(=O)OCC (configuration not stated),5,-19,-12,3182,3,-14,7
Cc1ccc(C(=O)O)cc1-c1ccc(/C=C2\SC(=O)N(CC(=O)Nc3ccccc3)C2=O)o1,-7,1,12,4532,-16,-7,3
Cc1cccc2cc(C(c3nnnn3C(C)(C)C)N3CCN(C(=O)c4ccco4)CC3)c(=O)[nH]c12 (configuration not stated),5,16,2.2,5518,-14,2,7
Cc1onc(-c2ccccc2)c1C(=O)N1CCC2(CC1)OCCO2,4,4,2.1,10212,-2,1,4
C=CCn1c(SCC(=O)N(C(C)CC)C2CCS(=O)(=O)C2)nc2ccccc2c1=O (configuration not stated),-2,-3,3.3,?,-22,·,11
CN(C)c1ccc(/C=C/c2cc[n+](C)cc2)cc1,·,·,0.4,16151*,-40,2,2
CC(C)=Cc1oc2ccc([N+](=O)[O-])cc2c1N1CC(C)OC(C)C1 (configuration not stated),12,1,7.9,4112,-26,3,-3
O=CNc1cc2c(cc1Br)-c1ccccc1C2O (configuration not stated),0,0,4.8,3414,-15,·,-9
CC(NC(=O)COC(=O)c1cc2ccccc2cc1O)c1ccccc1 (configuration not stated),-4,-6,-3.2,?,-12,·,-5
COc1ccc(C(=O)c2sc(Nc3ccccc3)nc2N)cc1,1,9,2.9,3646,-29,10,-20
CC1(C)C(c2ccccc2)=NC(c2ccccc2)N1O (configuration not stated),3,1,1.7,·,-8,-8,-1
CCCCOc1cccc(NC(=O)CSc2nccn2C)c1,6,10,6.4,3856,-14,-3,-5
COc1cccc(-n2c(CNC(=O)OC(C)(C)C)n[nH]c2=S)c1,·,·,1.1,3477,-13,-2,7
Cc1ccc(C(=O)NCCN2CCCC2)cc1,·,·,-2.2,3009,-3,-4,11
O=C(NCc1ccncc1)C(=O)Nc1nc2ccccc2s1,-7,-4,1.7,1962,-22,-1,-1
O=C(OCc1cc2ccccc2[nH]c1=O)C1CCCO1 (configuration not stated),·,·,4.6,3492,-3,4,4
O=C(OCCOCCN=C1NS(=O)(=O)c2ccccc21)c1ccccc1,5,-3,2.8,4048,-23,14,4
O=C(C1=CC(c2ccc(C(F)(F)F)cc2)CC(OCCCCO)O1)N1CCN(Cc2ccccc2)CC1 (configuration not stated),7&19,-3&10,3.2&4.1,·,·,·,0&3
COc1ccc(CN2CCNC(=O)C2CC(=O)NCCc2nc(C)c(C)s2)cc1C (configuration not stated),8,6,2.2,5939,-18,-8,6
O=C(Nc1ccc2ccccc2c1)N1CCN(c2ncccc2C(F)(F)F)CC1,-1,2,-3.5,4092,25,-9,-7
COC(=O)C1C2C=CC3(CN(CCc4ccccc4)C(=O)C13)O2 (configuration not stated),·,·,-1.1,6389,-9,-12,6
COc1ccc(C(CNC(=O)C2COc3ccccc3O2)N2CCCC2)cc1 (configuration not stated),-4,2,1.8,9427,-13,·,8
Cc1ccc(CNC(=O)C(=O)NCC2CCCO2)cc1 (configuration not stated),·,·,-0.1,2263,-13,18,-2
CCN(Cc1ccccc1)C(=O)COC(=O)[C@@H]1CCCN1C(=O)c1cccs1,9,3,3.2,2713,-13,·,5
O=C(COC(=O)C1=COCCO1)Nc1cc(S(=O)(=O)N2CCCCC2)ccc1Cl,8,15,12,3882,-16,5,4
O=c1c2c(-c3cccs3)csc2ncn1/N=C/c1ccccn1,·,·,·,6358,-16,-6,·
O=C(NC(=S)Nc1ccccc1OC(F)F)c1ccc2c(c1)OCO2,1,1,5.7,·,-39,·,20
CCOc1ccccc1/C=N/n1c(C)nc2ccccc2c1=O,·,·,·,3829,-48,2,·
O=C(c1ccc(F)cc1)n1c(NCc2ccccc2)n[nH]c1=S,·,·,·,4341,-34,-22,·
Brc1cccc(/C=N/Nc2nn[nH]n2)c1,·,·,·,4015,-29,-9,·
NC(=O)c1nn(-c2cccc(Cl)c2)c(=O)cc1O,4,1,3.0,16281*,-11,-7,7
N#Cc1c(NC(=O)COC(=O)c2ccc(O)cc2O)sc2c1CCC2,7,-5,0.9,8764,-24,·,-3
CC(Oc1ccc(Cl)cc1Cl)C(=O)/C=C/N(C)C (configuration not stated),6,7,5.0,18301*,14,12,-10
Cc1ccc(-n2c([C@@H]3C[C@H]3c3ccccc3)n[nH]c2=S)cc1,5,-9,-0.2,2219,-3,4,18
O=C(Nc1ccc(Cl)cc1)N1CCN(c2ncccn2)CC1,11,10,7.9,4345,-24,8,3
Cc1ccc(-n2nnnc2SCc2nc3sc(C)c(C)c3c(=O)[nH]2)cc1,3,2,2.9,8852,-35,9,-4
CN1CCC(=NNC(=O)CN(c2ccc([N+](=O)[O-])cc2)S(=O)(=O)c2ccccc2)CC1,-1,-8,3.1,3849,-14,-3,9
COc1cccc(C2N(c3cccc(Cl)c3)C(=O)C3CCCN32)c1 (configuration not stated),·,·,0.0,6072,-18,-10,3
COc1ccc(CNC(=O)c2ccccc2SCC(=O)N2CCCC2)cc1OC,8,2,-2.5,·,-64,-6,7
CC(=O)N1CCN(c2ccc(NCc3cccs3)cc2)CC1,·,·,-0.1,2373,-8,·,-2
CC1CCC(NCc2ccco2)CC1 (configuration not stated),11,3,2.5,3303,0,-4,17
CCN(CC)S(=O)(=O)c1cccc(N2CC(O)=C(c3ccccc3)C2=N)c1,13,14,4.6,3793,-15,-10,11
Cn1c(=O)c2c(nc(CN3CCC(Cc4ccccc4)CC3)n2CCN2CCOCC2)n(C)c1=O,-1,8,3.9,27251*,-11,·,-5
Cc1c(C(=O)NCc2cccnc2)oc2ccccc12,5,9,5.0,23977*,-3,-2,-8
COc1ccc(NC(=O)c2nc(C)c(C3(C)CC(c4cccnc4)=NO3)s2)cc1 (configuration not stated),8,19,4.7,3675,-16,9,9
O=C(O)CCCCCNS(=O)(=O)c1ccc(Cl)cc1,-3,5,-5.9,11216,-9,5,-2
CCOC(=O)c1ccc(NC(=O)CCS(=O)(=O)c2cccc3nonc23)cc1,6,13,1.6,5318,-23,-5,7
COc1ccc(OC)c(NC(=O)Nc2nnc(N3CCCCC3C)s2)c1 (configuration not stated),4,8,6.0,3472,-11,-3,-12
Cc1cc(=O)oc(C)c1C(=O)NC1CCCCCCC1,-5,7,0.8,4442,-17,6,3

# (listing goes on)
SMILES,Mtb hypoxia rep,Mtb hypoxia rep growth,Sa RN4220 lethal,Autofluor counter,PrP UTR inh,BJeLR viability,Sa ugtP lethal
CC(=O)c1sc(NC(=O)c2cccnc2Cl)nc1C,·,·,·,2651,-31,5,·
Cc1ccc2oc(=O)c3cnn(CC(=O)N4CCN(c5ccccc5)CC4)c3c2c1,4,0,-8.9,5208,-26,-16,0
COc1ccc(CCNC(=O)COC(=O)/C=C/c2ccc(OC)c(OC)c2)cc1,1,-3,5.3,2688,-17,3,6
CCN1CCC(C(N)=O)CC1,·,·,-1.7,2740,-16,8,-1
O=C(CNC(=O)N1CC(=O)Nc2ccccc21)NCc1ccc(Cl)cc1,5,2,2.0,5652,-19,1,15
Cc1cc(=O)n2nc(N3CCCC(C(=O)NCc4ccccc4)C3)sc2n1 (configuration not stated),3,6,-15,5469,-18,4,-4
CCCC(=O)c1cc(F)c(N2CCOCC2)cc1C,3,6,5.6,5910,-25,1,6
Cc1ccc(CNc2nc(N)c([N+](=O)[O-])c(Nc3ccc(F)cc3)n2)cc1,-1,9,-0.4,16034,-9,8,-1
O=C(NC1CCN(C(=O)C2CCCCC2)CC1)c1ccccc1,4,-1,-0.6,6728,-15,-6,3
Cc1ccc(-n2c(C)c([N+](=O)[O-])c3ccc(O)cc32)cc1,-4,-6,5.0,·,·,-1,-6
Oc1ccccc1N=Cc1c(O)ccc2oc3c(c12)CCCC3,·,·,·,4357,-8,-8,·
Cc1cc(C)c2c(n1)sc1c(=O)n(-c3ccccc3)c(=O)[nH]c12,18,14,12,9153,-6,-6,0
Cc1ccccc1-n1ncc2c1CC(C)(C)CC2NC(=O)c1cn[nH]c1C (configuration not stated),6,3,2.4,5600,-13,-2,2
CC1=C(C(N)=O)C(c2ccco2)C(C(N)=O)=C(C)N1,·,·,-2.6,·,-11,-3,-3
COc1ccc(OC)c(CCNC(=O)Cn2cccc2C(=O)c2ccccc2)c1,1,0,-6.5,4799,-18,5,0
COc1ccccc1CNC(=O)[C@H](C)NC(=O)C1CCN(C(=O)[C@H](CCSC)NC(=O)OC(C)(C)C)CC1,·,·,9.0,5678,-4,-4,-1
CCC(=O)N1CCN(c2ccccc2NC(=O)COc2ccc(C(C)C)cc2)CC1,6,12,2.1,5767,-13,-7,0
Cc1ccc(NC(=O)C2CCN(c3nc(C)cc(C)n3)CC2)cc1,0,-1,0.0,3090,-28,-1,5
Cc1occc1C(=O)NN=Cc1c(O)ccc2ccccc12,11,2,16,·,·,·,70
